Screening results from PubChem.
MT1-MMP reporter = inhibitors of MT1-MMP promoter transcription, cell-based, luciferase reporter, luminescence (AID 618) | MT1-MMP promoter luciferase reporter cells, luminescence | calls from a first round at 10 µM; hits with a dose series show EC50 in µM | 87,000 tested, 0.62% active;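 active = over half of the reporter light lost at 10 µM or EC50 under 50 µM; inactive = the rest and hits that failed the dose series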;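 note: actives suppress MT1-MMP promoter-driven transcription so potencies describe inhibitors; HT1080 fibrosarcoma cells; overnight exposure; toxic or luciferase-blocking compounds were not removed from the actives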
WNV NS2B-NS3 inh = inhibitors of West Nile virus NS2B-NS3 protease. WNV NS2B-NS3 protease, fluorogenic substrate Ex360/Em465; hits give low values. P06935. 65,000 tested, 0.18% active. z-score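 (tested at a level between 10 and 100 µM)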;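 active = z-score at -3 or under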;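 note: score is relative to mean and spread of the compound wells of a plate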
Target sequence (P06935 1371-1501 limits assumed): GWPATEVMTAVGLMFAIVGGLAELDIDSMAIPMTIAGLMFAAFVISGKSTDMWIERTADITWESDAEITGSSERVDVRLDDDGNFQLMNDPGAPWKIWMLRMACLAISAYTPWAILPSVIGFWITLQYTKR
Target sequence (P06935 1502-1679 limits assumed): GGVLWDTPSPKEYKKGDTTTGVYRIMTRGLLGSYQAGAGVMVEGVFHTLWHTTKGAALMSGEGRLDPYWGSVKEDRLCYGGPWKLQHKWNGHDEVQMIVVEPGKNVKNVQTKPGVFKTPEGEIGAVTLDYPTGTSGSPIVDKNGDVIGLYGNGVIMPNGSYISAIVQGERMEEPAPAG
Hsc70 ATP site = small molecules displacing fluorescent ligand from Hsc70 – biochemical, fluorescence polarization, primary screen (AID 568). one-dose displacement, % at 20 µM; IC50 in µM for titrated hits. 83,000 tested, under 10 active. Hsc70 fluorescence polarization, probe displacement; higher % means a stronger effect; strong numbers were not always called active;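 active = displacement above 50% without optical interference and an IC50 on retest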;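 note: ATPase domain with a fluorescein-tagged ATP probe; 0% = vehicle and 100% = excess ADP; read after one hour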
* marks the source's active call; other numbers are inactive results; i = inactive; x = not tested or not shown; + = active, no number.

| SMILES | MT1-MMP reporter | WNV NS2B-NS3 inh | Hsc70 ATP site |
| --- | --- | --- | --- |
| O=C(CCn1c(=O)sc2ccccc21)NCCCn1ccnc1 | i | -0.34 | -8.9% |
| Clc1ccc(CSC2=NCCCN2)cc1Cl | i | 1.45 | -6.2% |
| CCN1CCN(c2cc(C)c3cc(NC(=O)c4ccc5c(c4)OCO5)ccc3n2)CC1 | i | 0.08 | 4.7% |
| CCCCCOC(=O)NCCOC(=O)Nc1ccc(C(=O)OCC)cc1 | i | -0.37 | 0.0% |
| CCOCc1nnc(NC(=O)c2ccco2)s1 | i | -0.6 | -0.8% |
| CC1=C(C(=O)OC(C)C)C(C)NC(=O)N1 (stereo not given) | i | -0.28 | -2.5% |
| CCOC(=O)c1c(C)n(C)c2ccc(O)c(CN3CCCCC3)c12 | i | -0.55 | 5.0% |
| CC(C)(C)c1ccc(-c2nnc(SCC(=O)O)n2N)cc1 | i | 0.72 | -8.7% |
| CC(C)Oc1ccc(C(CC(=O)O)NC(=O)CSc2ncn[nH]2)cc1 (stereo not given) | i | -0.83 | 2.8% |
| Cc1ccc(-c2noc(CN3CCOCC3)n2)cc1 | i | x | -4.4% |
| CC1CCCN(C(=O)C2c3ccccc3C(=O)N3CCc4ccccc4C23)C1 (stereo not given) | i | 0.89 | 3.6% |
| CC(=O)c1ccc(OCC(=O)NC2CCS(=O)(=O)C2)cc1 (stereo not given) | i | -0.64 | -1.8% |
| COc1ccccc1-n1cnc2cc(C(=O)NC3CCCC3)ccc21 | i | x | 0.3% |
| CC(C)(C)C(=O)N(Cc1nc2ccccc2c(=O)[nH]1)Cc1cccs1 | i | x | 6.4% |
| C=CCn1c(SCC(=O)NC(=O)NCc2ccco2)nc2sc(C)c(C)c2c1=O | i | -0.97 | -8.0% |
| Cc1ccc(-c2noc(CCC(=O)N3CCCC3)n2)cc1 | i | 0.64 | 1.8% |
| O=c1oc(-c2cccs2)nc2sc3c(c12)CCCC3 | i | x | 1.3% |
| O=C(Nc1cccnc1)c1ccccc1F | i | -0.29 | -9.7% |
| c1ccc(-c2nnc(SCc3cn4ccsc4n3)o2)cc1 | i | 0.18 | 5.7% |
| Cn1c(=O)c2c(nc(CN3CCc4ccccc4C3)n2Cc2cccc(Cl)c2)n(C)c1=O | i | 0.69 | -0.4% |
| COc1ccc(-c2cc(C(F)(F)F)nc(N3CCCCCC3)n2)cc1 | i | -1.22 | 2.9% |
| CCSc1c(C(=O)NC)ccc2c1C(=O)c1ccccc1C2=O | i | x | -2.1% |
| Cc1ccc(C2(C)NC(=O)N(CCOc3ccccc3)C2=O)cc1 (stereo not given) | i | x | 4.5% |
| COc1ccc(OC)c(-n2c(=S)[nH]c3cc(C(=O)NCCCN4CCCC4=O)ccc3c2=O)c1 | i | x | 4.9% |
| CCN(CC)C(=O)c1cn(CC)c(=O)c2cc(OC)c(OC)cc12 | i | -1.72 | 6.1% |

(cont.)
| SMILES | MT1-MMP reporter | WNV NS2B-NS3 inh | Hsc70 ATP site |
| --- | --- | --- | --- |
| Cc1ccc(N2CC(C(=O)OCc3ccccc3F)CC2=O)cc1 (stereo not given) | i | 0.37 | 4.8% |
| COc1ccccc1NC(=O)N1CCCC1C(=O)NCc1ccc(F)cc1 (stereo not given) | i | 1.26 | -4.6% |
| Cc1cc(=O)oc(C)c1C(=O)NCCN1CCOCC1 | i | -0.13 | 9.3% |
| COc1ccccc1NC(=O)Cn1c(CN2CCCCC2)nc2ccccc2c1=O | i | 0.75 | -2.9% |
| Cc1ccc(CS(=O)(=O)Cc2ccc(C(=O)NCc3cccnc3)o2)cc1 | i | -0.67 | -1.0% |
| COc1ccc(CCNc2nnc(Sc3nnnn3-c3ccccc3)s2)cc1OC | + | 1.3 | -5.4% |
| O=C(Nc1cccc(-n2cnnn2)c1)c1ccco1 | i | 2.04 | -0.7% |
| CCc1ccccc1S(=O)(=O)Cc1ccc(C(=O)N2CCN(c3ccccn3)CC2)o1 | i | -0.68 | 1.8% |
| O=C(CN1C(=O)c2ccccc2S1(=O)=O)NCCC1=CCCCC1 | i | 1.28 | 2.8% |
| CCc1ccc2c(CN3CCN(S(=O)(=O)c4ccc5c(c4)OCCO5)CC3)cc(=O)oc2c1 | i | 2.04 | -11.8% |
| Cc1ccc(NC2CC(=O)N(c3ccc(N4CCCCC4)cc3)C2=O)cc1 (stereo not given) | i | -1.45 | 1.1% |
| CSc1ncc(Cl)c(C(=O)Nc2nnc(SC/C=C/c3ccccc3)s2)n1 | i | x | 3.2% |
| O=C(Nc1ccccc1)N1CCOCC1 | i | x | 0.7% |
| Cc1cc(O)ccc1-c1cnc2ccccc2n1 | i | 0.48 | -2.1% |
| Cc1ccc(-n2cnc3scc(-c4cccs4)c3c2=O)cc1 | i | x | -1.3% |
| CCCCN1C(=O)NC2NC(=O)NC21 (stereo not given) | i | x | -3.4% |
| CC1(C)CC(O)(CNCc2ccc3c(c2)OCO3)CCO1 (stereo not given) | i | x | -49.9% |
| O=C(CC1Sc2ccccc2NC1=O)Nc1cccc(-c2nnc3n2CCCCC3)c1 (stereo not given) | i | 0.72 | 3.9% |
| O=C(CNS(=O)(=O)c1ccccc1)NCc1ccccn1 | i | 0.54 | 7.0% |
| O=C(CCc1nc2ccccc2c(=O)[nH]1)NCc1cccc(Cl)c1 | i | x | -1.4% |
| CCOC1=NC(C(=O)O)c2ccccc2/C(=C(/C)Cl)N1 (stereo not given) | i | 0.64 | 3.3% |
| C=CCN1C(=O)C2C(C(=O)NC)C3C=CC2(O3)C1C(=O)NCc1ccc(OC)cc1 (stereo not given) | i | -0.77 | -1.5% |
| Cc1ccc(C(=O)Nc2cccnc2)cc1NC(=O)c1ccco1 | i | x | 4.6% |
| O=c1c2cnn(-c3ccccc3Cl)c2ncn1Cc1cccnc1 | i | -0.13 | 2.9% |
| Cn1c(SCC(=O)c2ccccc2)nnc1-c1ccc(O)cc1 | i | x | 4.0% |

(further entries)
| SMILES | MT1-MMP reporter | WNV NS2B-NS3 inh | Hsc70 ATP site |
| --- | --- | --- | --- |
| CC(=O)c1c(C)n(CC(=O)NCc2ccc3c(c2)OCO3)c2ccccc12 | i | 0.14 | 5.4% |
| CC(C)Cn1c(N)c(C(=O)COC(=O)c2ccc3c(c2)OCCO3)c(=O)n(C)c1=O | i | 0.04 | -0.3% |
| Cn1c(Cc2cccc3ccccc23)nnc1SCC(=O)N1CCN(c2cccc(Cl)c2)CC1 | i | x | 3.5% |
| CCOC(=O)/C=C(\C)Nc1cc(C)nn1-c1ccccc1 | i | 0.8 | -4.6% |
| COc1cccc(-c2cc(C(F)(F)F)nc(N3CCCCC3)n2)c1 | i | 0.1 | 0.3% |
| CCOC(=O)N1CCN(C(=O)c2cc(-c3ccc(OCC)cc3)nc3ccccc23)CC1 | i | -0.73 | -2.2% |
| COCCNC(=O)c1cc(-c2cccs2)on1 | i | -0.9 | -1.8% |
| CNC(=O)CC(=O)Nc1ccccc1C(=O)O | i | x | -4.2% |
| Cc1ccc(S(=O)(=O)c2cc3c(=O)n4ccccc4nc3n(Cc3ccco3)c2=N)cc1 | i | 0.38 | -15.8% |
| Cc1ccc(C)c(OCC(O)CN2CCCCC2C)c1 (stereo not given) | i | -0.22 | -2.6% |
| CCCOc1ccc(C(CC(=O)O)NC(=O)c2ccc3c(c2)OCO3)cc1 (stereo not given) | i | -0.06 | -2.4% |
| CCCCn1c(SCc2ncc(-c3ccccc3)o2)nc2cc(S(N)(=O)=O)ccc21 | i | -1.84 | -17.7% |
| Cc1cccc(-n2ncc3c(N(C)Cc4ccccc4)ncnc32)c1 | i | -0.63 | 4.1% |
| Fc1cccc(CSc2nc3ccncc3[nH]2)c1 | i | 0.99 | 3.5% |
| CCCS(=O)(=O)N1CCC(C(=O)NCCCN(C)Cc2ccccc2)CC1 | i | 0.24 | -5.0% |
| COc1ccc(CCNC(=O)CCN2C(=O)C(C)Oc3ccc(C)cc32)cc1OC (stereo not given) | i | -1.16 | -3.2% |
| COC(=O)C1C(=O)C2=C(CC1C)NC(C)=C(C(=O)OC(C)C)C2c1ccc(OC)c(O)c1 (stereo not given) | i | -0.05 | -5.4% |
| CCN(CC)c1nc(SCC(=O)O)nc(N(CC)CC)n1 | i | -0.04 | -6.1% |
| COc1ccc(S(=O)(=O)N2CCC(C(=O)Nc3cccc(Cl)c3)CC2)cc1OC | i | -1.17 | 1.2% |
| COc1cccc(NC(=O)c2cccs2)c1 | i | -0.27 | 1.1% |
| COc1ccccc1N1CCN(C(=O)c2oc3cc(C)cc(C)c3c2C)CC1 | i | x | 1.2% |
| COc1cccc(C2NC(=O)c3ccccc3O2)c1OC (stereo not given) | i | 0.62 | -2.6% |
| COc1cc(OC)cc(-c2nc3ccccc3c(=O)o2)c1 | i | x | 1.5% |
| S=C(c1ccc(-c2ccc(Cl)c(Cl)c2)o1)N1CCOCC1 | i | 1.07 | -3.1% |
| COCCn1nnnc1C(C(C)C)N(Cc1cccnc1)Cc1ccccc1Cl (stereo not given) | i | 0.86 | 4.1% |

The results go on:
| SMILES | MT1-MMP reporter | WNV NS2B-NS3 inh | Hsc70 ATP site |
| --- | --- | --- | --- |
| CCN(C(=O)c1ccco1)c1nc(CC(=O)Nc2ccc(Cl)cc2)cs1 | i | 0.32 | -1.5% |
| COc1ccc2c(Cl)c(C(=O)NCCCn3ccnc3)sc2c1 | i | -1.05 | 1.2% |
| CCn1c(Cc2ccccc2)nnc1SCC(=O)Nc1ccc(S(N)(=O)=O)cc1 | i | -0.02 | -1.3% |
| CCOC(=O)C(NC(=O)CC)(Nc1nc2c(s1)CCCC2)C(F)(F)F (stereo not given) | i | x | 2.0% |
| CCn1c2ccccc2c2cc(N)ccc21 | i | 0.43 | 3.2% |
| COc1cccc(NC(=O)Cc2ccccc2)c1 | i | 1 | 0.4% |
| O=C1C2C3C=CC(CO)(O3)C2C(=O)N1c1ccccc1-c1ccccc1 (stereo not given) | i | -0.17 | -2.7% |
| CN1CN(C)c2cccc3cccc1c23 | i | x | -12.0% |
| S=C(c1ccc2c(c1)OCO2)N1CCCC1 | i | -1.53 | 2.0% |
| CN(C(=O)CN1C(=O)c2ccccc2S1(=O)=O)c1ccccc1C(=O)O | i | -0.76 | 11.1% |
| CCn1c(SCC(=O)Nc2ccc(Cl)cc2)nnc1C1CC1 | i | 0.05 | 0.2% |
| N#CCCn1cc(/C=N/O)c(-c2ccc(-c3ccccc3)cc2)n1 | i | -1.1 | 3.5% |
| O=C(NC(NC1CCS(=O)(=O)C1)C(=O)c1ccccc1)c1ccc(Cl)cc1 (stereo not given) | i | 0.52 | -2.7% |
| CC(=O)Nc1ccc(S(=O)(=O)N2CCC(c3nc4ccc(C)cc4[nH]3)CC2)cc1 | i | -1.73 | 4.5% |
| COc1ccc(C2C(C(=O)N3CCN(c4ccccn4)CC3)CC(=O)N2c2ccc(OC)cc2)cc1 (stereo not given) | i | x | 1.4% |
| O=C(c1ccccc1C(=O)N1CCN(c2ccccc2F)CC1)N1CCN(c2ccccc2F)CC1 | i | -0.73 | 4.5% |
| COc1ccc(NS(=O)(=O)c2c(C)cc(C)cc2C)cc1 | i | x | -0.3% |
| CCOc1ccc2nc(SCC(=O)N3CCCCCC3)c(C#N)cc2c1 | i | -0.57 | 0.9% |
| CC(=O)Nc1ccc(NC(=O)C2CCN(c3c(Cc4ccccc4)c(C)nc4ncnn34)CC2)cc1 | i | x | 6.1% |
| COc1ccc(Cn2c(=O)sc3ccccc32)cc1 | i | -0.26 | 1.6% |
| CCCC(C(=O)NC1CCCC1)N(Cc1cccs1)C(=O)c1snc(C(N)=O)c1N (stereo not given) | i | -0.15 | -5.6% |
| Cc1cc(=O)[nH]c(SCc2cccc(F)c2)n1 | i | x | -0.1% |
| COc1ccccc1C(=O)n1nc(-c2ccccc2)nc1NCc1ccco1 | i | -0.62 | 2.0% |
| COc1ccc(NC(=O)Nc2cc(C)ccc2OC(F)F)c(OC)c1 | i | 0.12 | -3.0% |
| CCOC(=O)N1CCN(C(=O)c2cccc(-n3c(=S)[nH]c4cc(Cl)ccc4c3=O)c2)CC1 | i | 1.63 | 5.3% |

Remaining list, next part.
| SMILES | MT1-MMP reporter | WNV NS2B-NS3 inh | Hsc70 ATP site |
| --- | --- | --- | --- |
| CC1(C)CC(=O)C(C=NCCCN2CCCC2=O)=C(O)C1 | i | -0.38 | 6.4% |
| COc1ccc(NC(=O)CCC2COc3ccccc3O2)c(OC)c1 (stereo not given) | i | -0.65 | -4.3% |
| CCOC(=O)N1CCN(Cc2nc(N)nc(Nc3ccc(OC)cc3)n2)CC1 | i | x | -1.7% |
| CCOC(=O)C(Sc1nnc2c3ccccc3n(CC)c2n1)C(=O)OCC | i | 0.05 | -3.7% |
| CCCc1nnc(NC(=O)CCC(=O)O)s1 | i | 0.75 | -0.3% |
| COC(=O)Cc1cc(=O)n2[nH]c(C)nc2n1 | i | 1.78 | -4.0% |
| COc1ccccc1-c1cc(C(=O)NCc2ccco2)no1 | i | -0.92 | 5.7% |

Whole records, quoted from the list.
`CCCOc1ccc(C(CC(=O)O)NC(=O)c2ccc3c(c2)OCO3)cc1` (stereo not given) reads MT1-MMP reporter = i; WNV NS2B-NS3 inh = -0.06; Hsc70 ATP site = -2.4%
`CC(C)(C)c1ccc(-c2nnc(SCC(=O)O)n2N)cc1` reads MT1-MMP reporter = i; WNV NS2B-NS3 inh = 0.72; Hsc70 ATP site = -8.7%
`COc1ccccc1C(=O)n1nc(-c2ccccc2)nc1NCc1ccco1` reads MT1-MMP reporter = i; WNV NS2B-NS3 inh = -0.62; Hsc70 ATP site = 2.0%
